ALR H2O2 inh = inhibitors of human ALR sulfhydryl oxidase, primary screen, biochemical, H2O2 detection, HRP-luminol luminescence, single point. 290,000 tested, 3.8% active. FAD-linked sulfhydryl oxidase ALR (Homo sapiens), P55789. AID 485317, 2010. inhibition, % (no concentration beside the values). purified ALR, DTT oxidation;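 active = mean and each replicate at 75% or more; inconclusive = only one of the two met; inactive = neither met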;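 also: stock transfer was 7.5 nL into about 7.5 µL; 0% = neutral wells and 100% = wells with inactivated enzyme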
MLL AF4-AF9 inh = inhibitors of AF4 peptide binding to AF9, primary screen, biochemical, AlphaScreen, biotin-AF4 peptide, FLAG-AF9, single point. Protein AF-9 (Homo sapiens), P42568. inhibition, % at 10 µM. 350,000 tested, 0.47% active. AID 651704, 2012;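 active = every replicate reaching a set inhibition limit, whatever the replicate mean, cut at about 25% in these data; inconclusive = mean inhibition reaches that limit but some replicates miss it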;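 also: 0% = plate neutral control median and 100% = total signal loss; the record names both 10 and 1 µM as test concentration; the first replicate is given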
Target sequence (P42568 whole entry, looked up): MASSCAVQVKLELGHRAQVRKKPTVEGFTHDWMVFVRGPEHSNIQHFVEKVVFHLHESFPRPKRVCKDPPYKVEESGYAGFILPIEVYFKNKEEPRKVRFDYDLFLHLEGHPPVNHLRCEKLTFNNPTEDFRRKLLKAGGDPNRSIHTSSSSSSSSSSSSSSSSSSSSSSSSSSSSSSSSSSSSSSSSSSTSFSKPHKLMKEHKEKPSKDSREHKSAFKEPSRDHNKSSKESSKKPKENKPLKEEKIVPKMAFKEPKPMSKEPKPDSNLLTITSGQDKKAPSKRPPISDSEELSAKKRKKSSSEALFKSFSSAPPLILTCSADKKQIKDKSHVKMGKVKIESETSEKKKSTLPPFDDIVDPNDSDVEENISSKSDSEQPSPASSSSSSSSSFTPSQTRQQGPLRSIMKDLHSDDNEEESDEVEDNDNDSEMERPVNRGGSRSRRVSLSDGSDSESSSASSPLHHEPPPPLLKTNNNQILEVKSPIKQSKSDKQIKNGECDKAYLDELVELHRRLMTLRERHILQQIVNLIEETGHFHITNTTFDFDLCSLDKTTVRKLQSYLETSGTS
Ecoli rRNA inh = reduced GFP signal of wild-type E. coli, primary screen, bacterial rRNA inhibitor project, GFP/RFP fluorescence, OD600, single point | E. coli WT GFP vs humanized-ribosome RFP mutants, 24 h; hits give low values; DMSO median 0, no signal -100 | GFP signal change (wild-type ribosome), % (concentration not given with the values) | 350,000 tested, 1.6% active | AID 720706, 2013;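 active = significant combined selectivity score with lowered wild-type GFP, culture density cut under 30%, mutant RFP and density less affected; inactive = any of these conditions unmet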; also: one replicate is shown; some compounds called inactive have numbers as strong as hits
Vif A3G = inhibitors of Vif binding to APOBEC3G peptide, primary screen, biochemical, TR-FRET, GST-Vif 1-94, biotin-A3G peptide, dose response retest (AID 1117319); inhibition, %; hits with a dose series show IC50 in µM; 260,000 tested, 0.57% active; Virion infectivity factor (Human immunodeficiency virus type 1 group M subtype B (isolate …; TR-FRET GST-Vif / biotin-A3G peptide binding; higher % means a stronger effect; test concentration not given here; strong numbers were not always called active;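 active = above the screen mean plus three standard deviations and confirmed in dose response; inconclusive = results disagree or hit not tested in dose response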;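 also: Vif residues 1-94 fused to GST binding biotinylated APOBEC3G peptide 110-148; 0% = full assay without inhibitor and 100% = GST in place of GST-Vif; retest series ran down from 100 µM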
FGF22 binding = binders of human FGF22 protein, primary screen, FGF22 synaptogenesis inhibitor project, biophysical, thermal shift, single point; Fibroblast growth factor 22 (Homo sapiens), Q9HCT0; recombinant FGF22 thermal shift, SYPRO orange fluorescence; percent of sucrose octasulfate shift, DMSO zero; calls only at 9.99 µM; 340,000 tested, 1.5% active;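 active = melting point raised past a set limit in the mean and every replicate; inconclusive = no clear call; three in four hits are not shown here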
E coli growth = E. coli growth inhibition, primary screen, OD600; Escherichia coli growth, 23 h; hits give low values; OD600 absorbance (concentration not given with the values); 330,000 tested, 0.21% active; AID 1053175, 2014;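 active = OD600 absorbance below the run mean of sample wells minus 3.6 SD, in any replicate, cut at about 0.56 in these data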;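 also: stock transfer was 300 nL into about 60 µL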
HNF4A DNA FP = change in binding of human HNF4A to DNA, primary screen, biochemical, fluorescence polarization, FITC-DNA; 1 h; activity change, % at 10 µM; 360,000 tested, 0.3% active; Hepatocyte nuclear factor 4-alpha (Homo sapiens), P41235; AID 1224865, 2016; in the data active = activity change above about 30%, passing the limit was not always enough;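 also: controls were the assay level and a saturating level of protein; the project sought stronger binding though the title names inhibitors; some compounds called inactive have numbers as strong as hits; positive values seem to mean higher polarization but the record does not say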
Target sequence (P41235 whole entry, looked up): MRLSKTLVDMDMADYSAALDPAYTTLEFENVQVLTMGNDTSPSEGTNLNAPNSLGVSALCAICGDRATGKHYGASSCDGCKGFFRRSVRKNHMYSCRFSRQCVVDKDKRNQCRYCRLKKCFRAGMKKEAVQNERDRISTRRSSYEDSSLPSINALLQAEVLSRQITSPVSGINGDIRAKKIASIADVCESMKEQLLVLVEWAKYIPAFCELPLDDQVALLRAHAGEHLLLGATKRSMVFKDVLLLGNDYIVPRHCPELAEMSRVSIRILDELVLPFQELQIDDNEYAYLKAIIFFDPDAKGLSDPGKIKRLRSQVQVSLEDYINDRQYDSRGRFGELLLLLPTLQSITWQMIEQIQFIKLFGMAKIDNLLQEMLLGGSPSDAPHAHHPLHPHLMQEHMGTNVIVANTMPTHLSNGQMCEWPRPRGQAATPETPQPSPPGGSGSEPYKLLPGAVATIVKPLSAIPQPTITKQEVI
Ecoli rRNA inh OD600 = further read-out of Ecoli rRNA inh, marked with its call; OD600 change, %; measured here: OD600 growth;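 optical density of the mix in the first replicate; 0 = DMSO median and -100 = no signal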
Ecoli rRNA inh RFP = further read-out of Ecoli rRNA inh, marked with its call; RFP signal change, %; measured here: RFP humanized mutant strains;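 first replicate; 0 = DMSO median and -100 = no signal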
* = called active by the depositor; i = inactive; ? = inconclusive; nt = no result given; + = active, no number; & = joins results of further samples. This is a subset; count on the stated rates, not on these rows.

SMILES	ALR H2O2 inh	MLL AF4-AF9 inh	Ecoli rRNA inh	Ecoli rRNA inh OD600	Ecoli rRNA inh RFP	Vif A3G	FGF22 binding	E coli growth	HNF4A DNA FP
Cc1cccc[n+]1CC(=O)Nc1cccc([N+](=O)[O-])c1	-2	-2.7	7	5	-2.1	?	i	0.7	-3.0
O=C(CSc1nnc(CNC(=O)c2c(F)cccc2Cl)o1)NCc1ccc2c(c1)OCO2	-13	nt	nt	nt	nt	-6%	nt	0.73	-0.2
Cc1cccn2cc(-c3ccc(Cl)cc3)nc12	nt	1.0	-37	-32	-5.2	nt	i	0.66	-3.3
O=C1CC(NCc2ccc3c(c2)OCO3)C(=O)N1CCc1ccccc1 (centres undefined)	15	nt	2	-2	0.1	15%	nt	0.69	-2.0
C/C(=N\NC(=O)CNC(=O)C1COc2ccccc2O1)c1ccco1 (centres undefined)	4	-2.8	13	12	1.1	nt	i	nt	-2.5
CCCN1CCC(N2CCN(c3ccc([N+](=O)[O-])cc3)CC2)CC1	-8	0.3	20	15	4.2	nt	i	0.67	-0.7
O=C1[C@@H]2[C@@H](CN3CN(c4ccccc4)N=C(c4ccccc4)[C@@]23c2ccccc2)C(=O)N1c1ccccc1	nt	-2.4	6	15	1.1	nt	i	nt	-1.4
C=CC[C@@H](CC(=O)N[C@@H](CO)Cc1ccccc1)C(=O)N[C@@H](COC(=O)[C@@H](CC=C)Cc1ccc(F)cc1)Cc1c[nH]c2ccccc12	4	-0.4	20	9	-1.9	-2%	i	0.76	-4.0
Cn1c(N2CCN(C(=O)NC34CC5CC(CC(C5)C3)C4)CC2)nc2ccccc21	47	nt	nt	nt	nt	-6%	nt	0.71	1.6
Cc1c(C(=O)NCCN2C(=O)S/C(=C\c3cccnc3)C2=O)cccc1[N+](=O)[O-]	-7	7.2	5	-2	1.1	0%	i	0.67	1.2
O=C1CC(c2ccco2)CC(O)=C1C=NCCN1CCN(C(=S)Nc2ccccc2)CC1 (centres undefined)	-9	0.2	nt	nt	nt	9%	i	0.7	1.6
C[C@H](CO)N1C[C@H](C)[C@H](CN(C)C(=O)Nc2ccc(C(F)(F)F)cc2)Oc2cc(-c3ccncc3)ccc2S1(=O)=O	nt	0.2	-5	-16	4.4	nt	+	nt	nt
O=C(O)c1ccc(Sc2nnnn2-c2ccccc2)c([N+](=O)[O-])c1	-5	nt	-4	1	-6.3	90µM*	nt	0.75	2.4
C[C@@H]1CCCCO[C@@H](CN(C)S(=O)(=O)c2ccc(F)cc2)[C@H](C)CN([C@@H](C)CO)C(=O)c2cc(NC(=O)c3ccccc3)ccc2O1	nt	0.6	-1	0	-0.7	nt	i	nt	nt
CN1CCN(NC(=O)CN2C(=O)/C(=C/c3c(Cl)cccc3Cl)SC2=S)CC1	nt	nt	nt	nt	nt	3%	nt	0.71	5.0
CCc1ccc(/C=c2\s/c(=C\C(=O)C(C)(C)C)[nH]c2=O)cc1	-1	nt	nt	nt	nt	26%	nt	nt	0.1
O=C(NCc1ccccc1)C(c1ccccc1)N(C(=O)c1csnn1)c1ccc(F)cc1 (centres undefined)	-1	4.1	7	0	-2.2	nt	i	0.66	1.2
Cn1nnnc1SCC(=O)Nc1ncc(Cl)cc1Cl	-5	-17	2	5	0.6	6%	i	0.69	-5.5
COC(=O)[C@]12C[C@H](CC(=O)N3CCOCC3)C(=O)N(Cc3ccccc3)C1=C[C@H](C(C)C)O[C@@H]2C1CC1	nt	-2.7	12	7	3.5	nt	i	nt	nt
O=c1cc2c(nn1Cc1ccc(Cl)cc1Cl)-c1ccccc1CC2	-15	nt	nt	nt	nt	20%	nt	0.76	2.2
CN(C)C1=NC[C@H](Cc2ccccc2)N1CCC1CCCC1	-23	3.8	-3	-5	-0.3	nt	i	nt	0.0
C[C@@H]1CCCCO[C@@H](CN(C)S(=O)(=O)c2ccc(F)cc2)[C@@H](C)CN([C@@H](C)CO)C(=O)c2cc(N(C)C)ccc2O1	nt	7.3	-1	0	0.0	nt	i	nt	nt
CC(C)Cc1nnc(NC(=O)CCC(=O)NC2CCCC2)s1	2	-1.7	6	16	-0.1	nt	i	0.71	2.2
C[C@@H]1CCCCO[C@@H](CN(C)CC2CCCCC2)[C@@H](C)CN([C@H](C)CO)C(=O)c2cc(NS(=O)(=O)c3ccccc3)ccc2O1	nt	0.0	1	-9	-0.4	nt	i	nt	nt
Cc1ccc(Nc2nnc(SCC(=O)NC3CCS(=O)(=O)C3)s2)c(C)c1 (centres undefined)	-9	0.5	1	-1	-1.7	-2%	i	0.7	-1.6
COC(=O)c1cc(C(=O)N2CCN(C(=O)c3ccco3)CC2)cc([N+](=O)[O-])c1	-21	-1.0	nt	nt	nt	6%	i	0.72	-0.3
COc1ccc(OCc2nnc(SCC(=O)Nc3ccccc3F)o2)cc1	2	1.5	nt	nt	nt	nt	i	0.67	2.4
O=C1/C(=C\c2ccc3ccccc3c2)CCCc2ccccc21	-10	nt	nt	nt	nt	3%	nt	0.69	-0.3
CC=Cc1ccc2n(c1=O)C[C@@H]1[C@@H](CO)[C@H](C(=O)N(C)C)N(Cc3cccc(F)c3)[C@H]21 (mixture of isomers)	nt	-1.1	-2	-5	-0.5	nt	i	nt	nt
Cn1nnnc1Sc1ncnc2scc(-c3cccc(F)c3)c12	-1	1.2	20	20	-5.5	nt	i	0.67	2.3
O=C1NC2(CCSC2)C(=O)N1CC(=O)N(Cc1ccccc1)C1CCS(=O)(=O)C1 (centres undefined)	-3	-1.8	8	2	-4.5	nt	i	0.7	3.6
CC(C)(C)c1nc(CN2CCCCC2)cc(CN2CCCCC2)c1O	8	nt	nt	nt	nt	-3%	nt	0.72	-0.5
c1ccc(-c2ccnc3ncnn23)nc1	-6	nt	nt	nt	nt	-4%	nt	0.68	0.8
CC(=O)SCC(Cc1ccccc1)C(=O)NCC(=O)OCc1ccccc1 (centres undefined)	6	nt	nt	nt	nt	-10%	nt	0.69	nt
Cc1sc(NC(=O)c2ccc(=O)n(C)n2)nc1-c1ccccc1	8	1.4	-7	-28	-3.0	-10%	nt	0.67	0.2
CCn1c(SCC(=O)Nc2nccs2)nnc1-c1ccccc1	-2	nt	nt	nt	nt	?	nt	0.61	3.4
COC(=O)c1sc2nc(CN3CCN(c4cccc(C(F)(F)F)c4)CC3)[nH]c(=O)c2c1C	3	-1.4	0	-9	7.2	14%	nt	0.68	22
O=C(/C=C/c1cccc([N+](=O)[O-])c1)OC1CCCCC1=O (centres undefined)	8	-4.3	8	13	-0.8	-3%	nt	0.7	-0.9
O=C(c1cnccn1)N1CC[C@@H]2[C@@H](CO)Nc3ccc(-c4cccc(F)c4)cc3[C@@H]21	nt	7.2	0	-3	-1.5	nt	i	nt	nt
CCOC(=O)c1sc(N)nc1-c1ccccc1	0	4.4	-3	-9	3.4	?	i	0.68	-1.7
O=C(Nc1ccc2c(c1)CCC2)Nc1ccccc1F	6	-1.0	-1	9	-3.1	nt	i	0.64	5.6
CCOC(=O)c1c(C(C#N)C#N)cc(C)nc1C	10	nt	nt	nt	nt	-2%	nt	0.69	-0.8
O=C(C1CC1)N1CCCCN2[C@@H](CO)[C@H](c3ccc(C#CC4CCCC4)cc3)[C@@H]2C1	nt	13	-53	-75	-4.8	nt	i	nt	nt
CN1CCN(c2nc3cc(N4CCOCC4)ccc3s2)CC1	nt	-7.1	13	7	5.7	-5%	i	nt	3.9
CC(=O)c1cccc(CN2CCN(CC=C(C)C)C(CCO)C2)c1 (centres undefined)	nt	-35	6	3	9.9	-2%	i	0.7	0.7
CN(CC(=O)Nc1cccc(F)c1)C(=O)c1cc(S(=O)(=O)N(C)C)ccc1N1CCCC1	-2	2.7	-4	-1	1.9	nt	i	0.66	0.0
Cc1c(OC(C)C(=O)NCCN2CCOCC2)ccc2c3c(c(=O)oc12)CCCC3 (centres undefined)	7	1.0	-5	1	-1.2	nt	i	0.69	3.7
Cc1ccc(COc2ccsc2C(=O)O)cc1	nt	-2.2	5	0	-2.1	nt	i	0.69	0.6
C[C@@H]1CCCCO[C@H](CN(C)C(=O)Cc2ccccc2)[C@H](C)CN([C@@H](C)CO)C(=O)c2cc(NC(=O)Nc3ccc4c(c3)OCO4)ccc2O1	nt	4.1	-1	1	7.0	nt	i	nt	nt
COc1ccc(CCNC(=O)CCNS(=O)(=O)c2cccc3nsnc23)cc1OC	4	nt	nt	nt	nt	-1%	nt	0.67	-2.7
COc1ccc(N2CCN(S(=O)(=O)c3cccs3)CC2)cc1	-5	nt	nt	nt	nt	2%	nt	0.71	1.1
Cc1ccc2oc(=O)c3cnn(CC(=O)NC4CCN(Cc5ccccc5)CC4)c3c2c1	-16	-2.6	8	8	0.3	2%	i	0.78	-1.9
COc1ccccc1-c1cnc2c(c1)C(=O)N([C@@H](C)CO)C[C@@H](C)[C@@H](CN(C)CC1CCOCC1)O2	nt	-0.4	0	-1	-2.1	nt	i	nt	nt
COc1ccc(NC2CCCN(C(=O)CCc3cccc(F)c3)C2)cc1 (centres undefined)	99*	9.0	-3	-10	2.7	nt	i	0.68	-0.8
CCOC(=O)C1C(c2ccc(O)c(O)c2)NC(=S)NC1(O)C(F)(F)F (centres undefined)	nt	-4.2	12	21	-3.9	nt	i	0.73	-0.3
Cc1cccc(N2C(=O)C3C4C=CC(C5CC45)C3C2=O)n1 (centres undefined)	-7	-2.2	9	5	-0.5	nt	i	0.69	4.6
O=C(Nc1ccc2oc(=O)ccc2c1)c1ccc(-c2cccc([N+](=O)[O-])c2)o1	-4	0.0	9	11	3.2	18%	i	nt	13
O=S(=O)(c1ccccc1)N1CCNCC1	-31	-1.8	nt	nt	nt	nt	i	0.64	1.9
CN(C)S(=O)(=O)N1CCc2ccc(NC(=O)C3CCCO3)cc2C1 (centres undefined)	nt	1.5	4	4	-1.6	nt	i	0.65	1.0
CCCSc1nnc(NC(=O)Nc2ccccc2)s1	-5	-9.1	10	12	-5.4	nt	i	0.67	-2.6
The results go on.
SMILES	ALR H2O2 inh	MLL AF4-AF9 inh	Ecoli rRNA inh	Ecoli rRNA inh OD600	Ecoli rRNA inh RFP	Vif A3G	FGF22 binding	E coli growth	HNF4A DNA FP
CCC(=O)Nc1cccc(NC(=S)NC(=O)c2ccc(Cl)cc2)c1	2	nt	nt	nt	nt	17%	nt	0.62	-4.6
COc1cc2[nH]c(C(=O)Nc3ccc4c(c3)OCCO4)cc2c(OC)c1OC	0	1.0	-14	-9	-0.8	nt	i	0.69	4.4
COC(=O)c1ccc(COC(=O)c2c(C)nn(Cc3ccccc3Cl)c2Cl)o1	-6	nt	nt	nt	nt	3%&12%	nt	0.65	4.3
O=C(NCC[C@@H]1CC[C@H](NC(=O)C2CCCCC2)[C@@H](CO)O1)c1ccc(F)cc1	nt	-1.4	0	-3	-3.1	nt	i	nt	nt
CC(=O)C1=C(C)NC(=O)NC1c1cccc(O)c1 (centres undefined)	nt	nt	nt	nt	nt	10%	nt	0.7	4.6

From PubChem BioAssay
